# fixLJ activator: activators of Burkholderia fixLJ two-component system, primary screen, B. multivorans, GFP reporter. hit rate 0.3% among 29,000. z-score (no concentration beside the values). B. multivorans fixK-promoter GFP reporter, 18 h; active compounds read high;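 active = replicate mean overnight rise in green fluorescent reporter signal, 3 or more SD over negative controls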;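 note: score is relative to vehicle wells of the plate; 300 nL library stock went into each well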
# * = called active by the depositor; & = joins results of further samples.
Structure,fixLJ activator
CCc1nn(CC(=O)NCCCN(CC)CC)c(=O)c2cc3sc(C)cc3n12,-1.1
COc1ccc(-c2nc(CSCC(=O)N3CCN(c4cc(Cl)ccc4C)CC3)c(C)o2)cc1,2
Cc1cccc2cc(-c3nccn3CCN3CCOCC3)c(=O)[nH]c12,-0.82
O=C(c1ccc2c(c1)N(Cc1ccccc1F)C(=O)c1ccccc1S2(=O)=O)N1CCN(c2ccccc2F)CC1,-0.29
CCOCCCn1c(SCC(=O)Nc2ccccc2OC)nc2c(oc3ccccc32)c1=O,-1.7
Cc1ccc(NC(=O)C2CCN(S(=O)(=O)c3c(C)noc3/C=C/c3ccco3)CC2)cc1C,-1.5
O=C1N=C(O)CN1/N=C/c1ccc(-c2ccc([N+](=O)[O-])cc2)o1,-1.3
O=C(Cn1ncc2c3ccccc3n(Cc3ccccc3)c2c1=O)NCc1ccccc1,-2.9
Cc1ccc2nc(-c3ccc(C)o3)c(Nc3ccc4c(c3)OCCO4)n2c1,0.1
COc1ccc2oc(=O)cc(CN3CCN(C(=O)c4ccccc4)CC3)c2c1,-0.32
COc1cccc(NC(=O)c2c(C(=O)Nc3ccccc3)sc3nc(C)cc(=O)n23)c1,-1.3
N#Cc1ccc(NC(=O)c2cc(-c3cccc(Cl)c3)on2)cc1,0.43
Cc1ccc(NC(=O)Cn2nc(C(F)(F)F)c3c2CCCC3)cc1C,-2.4
COc1ccc(Cn2cc(S(=O)(=O)c3ccc(Cl)cc3)c(=O)c3cc4c(cc32)OCO4)cc1,0.39
CCc1nccn1CCC(=O)NCCCn1ncc2ccccc21,-0.96
COc1cc(OC)cc(C(=O)NC(c2ccc(OC)nc2)C2CC(O)C2)c1 (configuration not stated),-0.2
CCc1nc(C)sc1CNC(=O)N1CCCCC1CN1CCOCC1 (configuration not stated),-2.2
CCn1c(=O)cc(OCC(=O)Nc2cc(OC)c(OC)c(OC)c2)c2ccccc21,-0.75
COc1cccc(CNC(=O)c2oc3ccc4c(c3c2C)C(=O)CC(C)(C)O4)c1OC,-0.23
COc1cc(NS(=O)(=O)c2ccc3c(c2)CC(=O)N3)cc(OC)c1OC,-0.94
CCCC(=O)Nc1ccc(NC(=O)C(C)n2cc(C)cn2)cc1OC (configuration not stated),-0.28
Cc1cc(C)cc(NC(=O)Cn2c(C(F)(F)F)nc3ccccc32)c1,-1.4
Cc1ccc(-c2c(C(=O)N3CCN(c4cccc(C)c4)C(C)C3)oc(=O)c3ccccc23)cc1 (configuration not stated),0.04
O=C(OC[C@H]1O[C@H](OC(=O)c2cc(O)c(O)c(OC(=O)c3cc(O)c(O)c(O)c3)c2)[C@H](OC(=O)c2cc(O)c(O)c(OC(=O)c3cc(O)c(O)c(O)c3)c2)[C@@H](OC(=O)c2cc(O)c(O)c(OC(=O)c3cc(O)c(O)c(O)c3)c2)[C@@H]1OC(=O)c1cc(O)c(O)c(OC(=O)c2cc(O)c(O)c(O)c2)c1)c1cc(O)c(O)c(OC(=O)c2cc(O)c(O)c(O)c2)c1,-3.1
O=C(O)c1cc2c(s1)C1(CCN(C(=O)CCC3CCCC3)CC1)OCC2,-0.58
COc1ccc(C)cc1NC(=O)NC(C)c1c(-n2cccc2)sc(C)c1C (configuration not stated),-2.1
NC(=O)Cn1c(=O)n(CCCCCC(=O)NCc2ccccc2)c(=O)c2sccc21,-1.7
CCN1C(=O)C(O)(c2c(C)[nH]c3ccccc23)c2ccccc21 (configuration not stated),0.01
CCS(=O)(=O)N1CC2CN(Cc3nc(C4CC4)no3)C[C@]2(C(=O)O)C1 (some centres not stated),-0.7
Cc1cn2c(=O)cc(COc3cccc(NC(=O)c4cccc(F)c4)c3)nc2s1,1.9

# Four of the compounds above, as labelled records:
SMILES: CCc1nn(CC(=O)NCCCN(CC)CC)c(=O)c2cc3sc(C)cc3n12
  fixLJ activator = -1.1
SMILES: COc1ccc(-c2nc(CSCC(=O)N3CCN(c4cc(Cl)ccc4C)CC3)c(C)o2)cc1
  fixLJ activator = 2
SMILES: Cc1cccc2cc(-c3nccn3CCN3CCOCC3)c(=O)[nH]c12
  fixLJ activator = -0.82
SMILES: O=C(c1ccc2c(c1)N(Cc1ccccc1F)C(=O)c1ccccc1S2(=O)=O)N1CCN(c2ccccc2F)CC1
  fixLJ activator = -0.29

# Next section.
Structure,fixLJ activator
Cc1cc2oc(C(=O)N(Cc3ccccc3F)C3CCS(=O)(=O)C3)c(C)c2cc1Cl (configuration not stated),-0.29
CC(C)c1nc(CN2CCCN(C(=O)COc3ccc(F)cc3)CC2)no1,-0.35
CC1=C(C(=O)Nc2ccc(Cl)cc2)C(c2cccs2)n2nc(SCc3cccc(C)c3)nc2N1 (configuration not stated),-1.1
Cc1nc(CNC(=O)c2ccc(CN3CCN(C)CC3)o2)cs1,-0.75
CCOC(=O)c1cc(OC(=O)c2ccccc2F)n(-c2ccccc2)n1,-1.2
CCc1ccc(C(=O)c2cnc3ccc(C)cc3c2S(=O)(=O)c2ccc(OC)cc2)cc1,0.69
CCCn1cnc2cc(NC(=O)N(CC)Cc3noc(C)n3)ccc21,-0.79
O=C(c1ccc(CSc2nc3ccncc3n2Cc2ccc(F)cc2)cc1)N1CCCCCC1,-2.6
CCOc1ccc(CCNC(=O)c2oc(=O)c3ccccc3c2-c2ccc(C)cc2)cc1OCC,-0.42
COc1ccc(-c2nc3cc(C(C)C)ccc3o2)cc1NC(=O)c1ccccc1[N+](=O)[O-],-2.3
CCCOc1cccc(C(=O)Nc2cccc(NC(=O)c3ccc(C(C)(C)C)cc3)c2)c1,-0.46
COc1ccc(-n2nc(C(=O)N3CCN(c4ccccc4OC)CC3)c3c4ccccc4n(C)c3c2=O)cc1Cl,0.14
O=C(O)COc1ccccc1CN1CC2CCC1CN(C(=O)C1CCC1)C2 (configuration not stated),-0.66
CCc1ccc(NC(=O)CN(c2cc(C)cc(C)c2)S(=O)(=O)c2c(C)[nH]c(=O)[nH]c2=O)cc1,-0.77
CSc1ccc(/C=C/c2nc3ccccc3n2S(=O)(=O)c2ccc(Br)cc2)cc1,-1.5
Cc1ccccc1-n1c(/C=C/c2ccccc2F)nc2ccccc2c1=O,-2.1
Cc1cc(Br)ccc1NC(=O)CCS(=O)(=O)c1cccc2nonc12,-0.85
Cc1c(C(=O)OC2CCCCC2)[nH]c2c1C(=O)CC(c1ccc(C(C)(C)C)cc1)C2 (configuration not stated),0.15
CC/C(=C(/CC)c1ccc(O)cc1)c1ccc(O)cc1,-1.1&-1.1
CCCCOc1cccc(C(=O)N(Cc2ccc(Cl)cc2)C2CCS(=O)(=O)C2)c1 (configuration not stated),-2.1
CCOc1ccc(NC(=O)CN2C(=O)C(c3ccccc3)=NC23CCCCCC3)cc1,1.5
CCOC(=O)Cn1c(=O)oc2cc(S(=O)(=O)N3CCN(c4ccccc4F)CC3)ccc21,-1.6
Cn1c(CN2CCN(Cc3ccccc3)CC2)nnc1C1CC(N)C1 (configuration not stated),-1.3
CCOC(=O)Cn1c(=N)n(CCOc2ccc(OC)cc2)c2ccccc21,-1.4
CN(C)C(=O)CCc1nc(Cc2c(Cl)cccc2Cl)nn1C(C)(C)C,-2.7
Cc1ccc(NC(=O)c2c(C)oc3ccc(O)c(CN4CCCCCC4)c23)c(C)c1,-1.1
COc1ccc(Cn2nnc(C(=O)Nc3cc(OC)ccc3OC)c2N)cc1,-1.2
CCOc1ccc(CCNC(=O)c2cccc(Nc3nc4ccccc4nc3-n3nc(C)cc3C)c2)cc1OCC,-0.47
O=C(NCc1ccc2[nH]c(=O)[nH]c2c1)c1cc(=O)c2cccc(F)c2[nH]1,-0.27
COc1cc(Cl)c(C)cc1NC(=O)c1ccc2c(Cl)c3c(nc2c1)CCC3,-0.99

# Continued (two carried over from the part before).
Structure,fixLJ activator
O=C(NCc1ccc2[nH]c(=O)[nH]c2c1)c1cc(=O)c2cccc(F)c2[nH]1,-0.27
COc1cc(Cl)c(C)cc1NC(=O)c1ccc2c(Cl)c3c(nc2c1)CCC3,-0.99
O=C(NCCn1cc(SCc2ccc(C(F)(F)F)cc2)c2ccccc21)c1ccccc1F,1.7
O=C(NCc1ccc2c(c1)OCO2)c1ccc2c(c1)N(Cc1ccccc1)C(=O)c1ccccc1S2=O (configuration not stated),-1.1
O=c1[nH]c2ccc(NCc3ccccc3F)cc2[nH]1,-0.77
CC(=O)NC1CCN(C(=O)NC(C(=O)O)c2ccc(O)cc2)C1 (configuration not stated),-0.45
NS(=O)(=O)c1ccc(CNC(=O)N2CCC(c3ccn[nH]3)CC2)cc1,-0.18
CCN1CC(C(=O)NCc2noc(Cc3ccccc3)n2)CCC1=O (configuration not stated),0.8
COc1ccc(-c2cc(C(F)(F)F)n3nc(C(=O)O)c(Cl)c3n2)cc1OC,-0.46
Cc1ccc(-n2nc(C)c3c(C)c(CCC(=O)NCc4ccc(Cl)cc4)c(C)nc32)cc1,-1.3
COc1cc(Cl)c(C)cc1NC(=O)N(CCO)Cc1ccco1,-2.4
COCCNC(=O)c1ccc2c(c1)N(Cc1c(F)cccc1Cl)C(=O)c1ccccc1S2,-1.1
Cc1ccc(-c2cc(C(=O)NCc3ccccc3Cn3cccn3)n[nH]2)o1,0.82
Cc1nc(SCC(=O)NC2CCOCC2OCc2c(C)noc2C)n[nH]1 (configuration not stated),1.3
CCOC(=O)c1cc(-c2ccc(OC)cc2)nn1Cc1ccccc1,0.66
O=C(Cc1csc2ccccc12)NCc1ccc(F)cc1,-0.42
COc1ccc(OC)c(-c2noc(CSc3nnc(-c4ccccc4)n3-c3ccccc3)n2)c1,-2.6
CCN(Cc1ccccc1)C(=O)CN1C(=O)COc2ccc(S(=O)(=O)N(CC)CC)cc21,0.24
CN(C1CCCCC1)S(=O)(=O)c1ccc2c(c1)c(=O)c(C(=O)N1CCN(c3ccc(F)cc3)CC1)cn2C,-1.1
O=C(CCC1N=C2c3ccccc3N=C(SCc3cccc(Cl)c3)N2C1=O)N1CCN(c2ccccc2)CC1 (configuration not stated),-0.87
COc1ccc(-c2nc3c(c(SCC(=O)N4CCCCC4)n2)Cc2cc(C)ccc2O3)cc1,-1.1
Cc1ccc2c(CC(=O)N(Cc3ccc(N(C)C)cc3)Cc3ccco3)coc2c1C,0.67
CCCN(CCC)C(=O)Cn1c(=O)n(CCCCCC(=O)NCc2ccc3c(c2)OCO3)c(=O)c2sccc21,-0.39
Cc1ccc(C2c3c(-c4ccccc4O)n[nH]c3C(=O)N2CCCO)cc1 (configuration not stated),-0.35
CCOC(=O)N1CCC(NC(=O)Nc2ccc3c(c2)oc(=O)n3C)CC1,-0.41
CC(C)c1ccc(NC(=O)C2CCCN(S(=O)(=O)c3cccc4nonc34)C2)cc1 (configuration not stated),-0.03
COc1ccc(C(NC(=O)Cc2cccc(C)c2)C2CC(O)C2)cn1 (configuration not stated),-0.13
Cc1ccccc1C1(CC(=O)NCc2cnn(C)c2C)CCOC(C)(C)C1 (configuration not stated),0.39
CC(=O)Nc1ccc(NC(=O)CCNS(=O)(=O)c2cccc3nsnc23)cc1,0.56
CCN(Cc1nc(C(C)C)no1)C(=O)c1cc2c([nH]c1=O)CCCC2,-0.88
CCc1ccccc1N(C)C(=O)c1cc2c(Cl)nc3ccc(C)cc3c2s1,-0.8
CSc1ccc(CN2CCn3nc(CNC(=O)C4CCC4)cc3C2)cc1,-0.4

# Later entries
Structure,fixLJ activator
CC(C)(C)n1nc(CC(N)=O)nc1COc1ccc(F)cc1F,-0.05
CN(CCC1CCOCC1)c1cc(C2CC(N)C2)nc(N)n1 (configuration not stated),0.47
CCCN1C(=O)C(Cc2nc3ccccc3c(=O)n2-c2cccc(C)c2)c2ccccc21 (configuration not stated),-0.57
Cc1ccc(C(C)C)c(OCC(=O)Nc2cc(-c3nc4ccccc4[nH]3)ccc2C)c1,-0.42
CC(Cc1cccs1)NC(=O)N1CCN(C(=O)COc2ccccc2)CC1 (configuration not stated),-0.95
COc1ccc(OC)c(C(=O)CC2(O)C(=O)N(Cc3ccccc3C)c3ccccc32)c1 (configuration not stated),0.21
CC(=O)NCC1CCN(S(=O)(=O)c2cc(C(=O)O)c(Cl)cc2F)CC1,-1.5
O=C1CCCN1CC1CCN(C(=O)c2ccc(NCc3ccoc3)nc2)CC1,0.64
COc1cccc(C(=O)NC(C)c2ccsc2)c1OCCCN (configuration not stated),-1.2
Cn1cc(C(=O)N2CC3CCC(C2)C3NC(=O)C2CCOCC2)c2ccccc21 (configuration not stated),-1.7
COc1nc2c(cc1C(=O)N1CCCC3(CCNCC3)CC1)CCC2,-0.4
O=C(NCCC1=CCCCC1)c1ccc2c(c1)N(Cc1ccccc1F)C(=O)c1ccccc1S2=O (configuration not stated),1.5
Cc1cccnc1CN1CCN(C(=O)c2cnn(C(C)C)c2)CC1,-0.12
CCc1cccc(NC(=O)C2CCN(C(=O)c3cnn(-c4ccccc4)c3-n3cccc3)CC2)c1,-3.1
CCc1ccc(CN2CCCn3nc(CNC(=O)C4CCC4)cc3C2)cc1,1.4
Cc1c(NC(=O)c2ccc(OC(C)C)cc2)cccc1-c1nc2ncccc2o1,-0.6
CCOC(=O)C(C)Sc1nc(-c2ccccc2)ccc1C#N (configuration not stated),-2.8
Cc1ccc(CSc2nnc(-n3c(=O)c(C#N)cc4c(=O)n5cccc(C)c5nc43)s2)cc1,-1.6
Cc1cc(NC(=O)c2cc(-c3ccc(Cl)cc3)on2)nn1Cc1ccc(Cl)cc1,-0.25
COc1cc(NS(=O)(=O)c2ccc3[nH]c(=O)[nH]c3c2)cc(OC)c1,0.37
CN(CC(=O)Nc1cccc(F)c1)S(=O)(=O)c1ccc2c(c1)n(C)c(=O)c(=O)n2C,-1.5

# Bioassay records: PubChem BioAssay, ICCB-Longwood Screening Facility, Harvard Medical School

# Some of the compounds tested; the hit share may differ from the screen's.
